Source: PubChem (National Center for Advancing Translational Sciences (NCATS))
gsp ag – qHTS for Agonist of gsp, the Etiologic Mutation Responsible for Fibrous Dysplasia/McCune-Albright Syndrome: qHTS. gsp mutant cells, cAMP HTRF, 30 min; control for the full effect not named in the record. Potency, µM (titrated, usually from 76.9 µM), for the others: at the top dose activation (cAMP increase), hits mostly activators. 340,000 compounds, 0.13% hits; active = well fitted activation curve with a large enough effect; inconclusive = small, poorly fitted or top-dose-only effect, or another doubt; inactive = no such curve, though single readings can be large or run the other way; cell line not stated here;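 also: phosphodiesterase inhibitor Ro 20-1724 added with compounds to block cAMP breakdown; potency is read from the fitted curve at half-maximal effect; nearly all actives have a fitted effect of over 60% in size; about a fifth of the inactives were tested at one dose only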
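Cells in DMEM/10% FBS with G418 were pretreated with compounds in DMSO plus […] (300 uM stock) for 30 min at 37C. cAMP was measured by HTRF (cAMP-d2 plus anti-cAMP antibody-K) after 30 min at room temperature.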
gsp antag – qHTS for Antagonists of gsp, the Etiologic Mutation Responsible for Fibrous Dysplasia/McCune-Albright Syndrome: qHTS. gsp-mutant cells, cAMP HTRF, 30 min; control for the full effect not named in the record. Potency, µM (doses to about 76.9 µM), without a hit: at the highest dose activity change, negative = inhibition, hits mostly inhibitors. 340,000 compounds, 0.4% hits. AID 624288, 2012; active = falling curve of any shape with a large fitted effect; inconclusive = falling curve, mostly with a smaller effect; inactive = flat or rising curve; cell line not stated here;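 also: intracellular cAMP measured with PDE inhibitor Ro 20-1724 present during compound exposure; potency is read from the fitted curve at half-maximal effect; % is scaled to controls: 0 for no effect and ±100 for the full control effect; nearly all actives have a fitted effect of over 65% in size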
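Cells, 2000/well, grown 16–24 h in DMEM 10% FBS with 0.5 mg/ml G418, then compounds plus […] (300 uM addition stock), 30 min at 37C. cAMP read by HTRF (cAMP-d2 and anti-cAMP antibody-K in lysis buffer) after 30 min RT.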
Sfp inh – qHTS Assay for Inhibitors of Bacillus subtilis Sfp phosphopantetheinyl transferase (PPTase); Potency, µM, inactives show max response, negative = inhibition, actives largely listed as inhibitors; 310,000 compounds, 3.5% hits; 4'-phosphopantetheinyl transferase ffp (Bacillus subtilis), Q9F4F7; Biochemical Sfp PPTase activity, qHTS; active = well fitted inhibition curve with a large enough effect; inconclusive = small, poorly fitted or top-dose-only effect, or another doubt; inactive = no such curve, though single readings can be large or run the other way;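 also: the enzyme is Sfp with the accession as filed and its product quenches rhodamine fluorescence; potency is read from the fitted curve at half-maximal effect; 0% = enzyme reaction without inhibitor and -100% = no enzyme wells; top concentration of the series not given in the record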
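Compounds were incubated with enzyme (final 15 nM) for 15 min at room temperature before substrate addition started the reaction. Fluorescence at 525 nm excitation, 598 nm emission was recorded immediately and after 30 minutes.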
Menin-MLL FL inh – qHTS Assay for Inhibitors Targeting the Menin-MLL Interaction in MLL Related Leukemias: Competition With Fluorescein Labeled MLL-derived Peptide. Fluorescence polarization, fluorescein-MLL peptide displacement from menin. FP activity change, % at 61.4 µM. 290,000 tested, under 10 active; inconclusive = falling polarisation curve, or a change in total fluorescence; inactive = total fluorescence flat and polarisation flat or rising; no compound was filed as active; the % refers to the polarisation; negative = inhibition;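 also: % of control where 0% means no effect; inhibitors lower the polarisation; unlabelled MLL peptide was the positive control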
TRPML1 blocker – qHTS for Inhibitors of the Human Mucolipin Transient Receptor Potential 1 (TRPML1) | activity change, negative = inhibition, % (concentration not given with the values) | TRPML1-inducible cells, Ca2+ dye fluorescence, FDSS; hits give low values; inhibition of EC80 agonist-evoked calcium signal | AID 624415, 2012 | 390,000 compounds, 0.02% hits; in the data active means activity change below about -50%; inconclusive means about -30% to -50%; inactive means above about -30%;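 also: stimulus is agonist 54-4 at its EC80 concentration; % is scaled to controls: 0 for no effect and ±100 for the full control effect; the text of the record puts the active cut at -80%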
Target sequence (Q9GZU1 whole entry, looked up): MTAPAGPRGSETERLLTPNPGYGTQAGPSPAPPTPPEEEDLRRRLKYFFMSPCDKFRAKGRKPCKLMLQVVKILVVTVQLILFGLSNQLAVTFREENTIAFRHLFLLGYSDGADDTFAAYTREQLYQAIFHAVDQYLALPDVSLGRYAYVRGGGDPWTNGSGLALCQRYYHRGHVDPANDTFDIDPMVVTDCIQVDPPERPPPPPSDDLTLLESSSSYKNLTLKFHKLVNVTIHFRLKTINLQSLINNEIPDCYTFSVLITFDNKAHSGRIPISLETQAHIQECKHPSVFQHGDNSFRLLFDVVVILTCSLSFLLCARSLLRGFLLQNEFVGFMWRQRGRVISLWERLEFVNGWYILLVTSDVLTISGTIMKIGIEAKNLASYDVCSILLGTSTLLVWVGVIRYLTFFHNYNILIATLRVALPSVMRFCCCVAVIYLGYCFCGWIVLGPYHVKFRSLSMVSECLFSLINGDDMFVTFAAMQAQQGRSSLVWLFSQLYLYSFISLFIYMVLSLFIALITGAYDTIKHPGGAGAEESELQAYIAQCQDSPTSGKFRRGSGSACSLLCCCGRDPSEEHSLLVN
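Calcium fluorescence in TRPML1-DL cells induced overnight with Tet: a 110 s read after compound pin addition, then a 110 s antagonist read after challenge with 54-4 at 4 uM final (EC80).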
ClpP mod – qHTS Assay for Activators of ClpP; purified B. subtilis ClpP, FRET peptide cleavage, 20 min; AID 651965, 2013; ATP-dependent Clp protease proteolytic subunit (Bacillus subtilis (strain 168)), P80244; 340,000 compounds, 1.9% hits; Potency, µM (titrated, usually from 57.5 µM), inactives show top-dose activity change, negative = active; active = well fitted falling curve with a large enough effect; inconclusive = small, poorly fitted or top-dose-only effect; inactive = no such curve, though single readings can be large or run the other way; also: potency is read from the fitted curve at half-maximal effect; the source files actives as falling curves though it sought activators and does not explain the sign; nearly all actives have a fitted effect of over 65% in size; many hits overshoot -100%
Target sequence (P80244 whole entry, looked up): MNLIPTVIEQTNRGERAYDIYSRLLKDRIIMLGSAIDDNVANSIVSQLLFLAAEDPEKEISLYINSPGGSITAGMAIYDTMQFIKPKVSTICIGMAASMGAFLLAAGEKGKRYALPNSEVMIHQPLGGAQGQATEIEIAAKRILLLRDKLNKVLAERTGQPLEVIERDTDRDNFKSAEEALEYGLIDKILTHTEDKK
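ClpP 10 microg/mL final, pH 8 Tris/KCl buffer with BSA, glycerol, Tween-20; compound pinned in; FRET-FV substrate; RT 20 min; Ex320/Em430; ΔFRET vs ADEP 5.8 microM, DMSO, no enzyme.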
TRPV1 potentiator – HTS Assay for Compounds that Act as Potentiators of the Vanilloid Receptor 1; 320,000 compounds, 0.02% hits; TRPV1-expressing cells, Fluo-8 calcium influx, capsaicin EC20 potentiation; host cell line not named in the record; control for the full effect not named in the record; potentiation, % at 8.33 µM; active means potentiation above 80%; inconclusive means 30% to 80%; inactive means below 30%; also: 0% is about no effect
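Fluo-8 calcium influx in TRPV1-expressing cells, kinetic read (ex 480/em 520 nm). Compound added and read 3 min for agonist activity, followed by capsaicin at EC20 final and 2 min further read for enhancement.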
Active calls of the source: *; u = inconclusive; x = not tested or not shown; [ ] = remark or other dose.

SMILES	gsp ag	gsp antag	Sfp inh	Menin-MLL FL inh	TRPML1 blocker	ClpP mod	TRPV1 potentiator
O=C(Cc1ccccc1)N1CCN(C/C=C/c2ccccc2)CC1	7%	-4%	2%	1.7	1	-2.3%	-4
COCC(C)OC(=O)c1c(N)n(Cc2ccco2)c2nc3ccccc3nc12 (stereo not given)	18%	5%	32µM*	u	2	u	6
Cc1ccc(N(C)C(=O)Oc2cccc3cccnc23)cc1	-24%	5%	7%	3.4	-1	-2.9%	21
CCC1(CCC(C)C)C(=O)NC(=S)NC1=O	17%	0%	x	x	0	x	x
CC(=O)c1cn(Cc2ccccc2F)c2ccccc12	-52%[inhibitor]	1%	8%	-1.2	-9	-2.4%	-4
CCN(CC)P(=O)(Nc1ccc(Br)cc1)c1c(C)nn(CCC#N)c1NC(=O)c1ccc(Cl)cc1 (stereo not given)	45%	u	18%	-8.9	38	x	u
CCOC(=O)C1C2NC(=O)N(Cc3ccccc3)C1(C)Oc1c(OC)cccc12 (stereo not given)	3%	-1%	-1%	5.3	-2	-2.3%	16
CCC(=O)O[C@@H]1[C@@H](OC(C)=O)[C@@]2(O)C(C[C@H](O)C2(C)C)[C@](C)(O)[C@H]2CC[C@@H]3[C@@H](O)[C@]12C[C@@]3(C)O (stereo not given in full)	x	8%	4%	2.9	15	0.4%	3
C[C@@H]1C[C@@H]2O[C@H]2/C=C\C=C\C(=O)Cc2c(Cl)c(O)cc(O)c2C(=O)O1	-2%	4%	16µM*	2.0	-1	-1.6%	28
N#CCCn1cc(C(=O)NCc2ccccc2)c(-c2ccccc2)n1	7%[15.4 µM]	4%	7%	1.1	-21	x	13
N[C@@H](CCl)C(=O)O	x	-4%	x	11	-14	0.4%	x
CCc1cc2c(s1)NC(=O)CN=C2c1cccs1	-15%	-14%	-2%	8.3	-5	-1.5%	3
O=[N+]([O-])c1ccc(N2CCNCC2)c2ncccc12	x	x	8%	4.0	x	x	0
CCOC(=O)c1c(C=O)c2ccccc2n1Cc1ccccc1F	u	-16%	-9%	3.8	4	-1.0%	-10
COC1=C(OC)[C@]23CCc4ccc(OC)c(OC)c4[C@]2(CCN3C)CC1=O	x	8%	x	x	-24	-0.5%	x
c1ccc2[nH]c(CCNC3CCCCC3)nc2c1	-41%	10%	11%	-0.2	7	1.5%	4
O=C(Cc1ccccc1)NC(Cc1ccc(Cl)cc1)C(=O)O (stereo not given)	-4%[15.4 µM]	10%	26%	4.2	-13	x	-7
COc1ccc(-n2c(O)c(C(C)=NCCc3c[nH]c4ccccc34)c(=O)[nH]c2=O)cc1	-3%	3%	-9%	2.7	3	-3.1%	5
Fc1ccc(Cn2nnnc2CN2CCC(n3nnc4cc(C(F)(F)F)ccc43)CC2)cc1	6%	-6%	12%	-1.7	5	0.2%	-11
CCN1C(=O)C(=C2C=C(C)N(Cc3ccco3)C(C)=C2)C(=O)N(CC)C1=S	u	21%	3%	16	2	x	-13
Cc1ccc2n1Cc1cnnn1-c1ccccc1-2	8%	x	x	x	-14	-13%	x
CN(C)/C=C1/C(=O)NC(=O)N(CCNc2ncc(C(F)(F)F)cc2Cl)C1=O	14%[15.4 µM]	-3%	-12%	11	23	x	22
Cc1cc(N2C(=O)C3CCCN3C2c2sccc2C)no1 (stereo not given)	-4%	3%	u	-0.2	-1	0.9%	13
CC(=O)O[C@H]1C(=O)[C@@]2(C)C([C@H](OC(=O)c3ccccc3)[C@]3(O)C[C@H](O)C(C)=C1C3(C)C)[C@]1(OC(C)=O)CO[C@@H]1C[C@H]2O (stereo not given in full)	x	11%	5%	1.5	x	0.6%	4
CC(=O)c1cccc(OCC(=O)N2CCN(CC(=O)Nc3cccc(F)c3)CC2)c1	-3%	-4%	x	x	-9	0.8%	-5
CN(C)C=C1C(=O)N(C2CCCCC2)C(=O)N(C2CCCCC2)C1=O	5%	2%	-11%	13	-10	-0.5%	-5
CCc1c(C)c2ccc(OCC(N)=O)cc2oc1=O	-24%	2%	4%	-1.7	1	6.3µM*	-12
COC(=O)C1=C(c2ccc(OC)c(OC)c2)C[C@@H]2CC[C@H]1N2C(=O)NCc1cc(C)oc1C(F)(F)F	x	-4%	x	x	2	-2.4%	-2
O=S(=O)(O)c1cc(O)ccc1O	x	5%	-3%	-5.8[24.8 µM]	-9	-13%	-26
CC(C(=O)N1CCC2(CC1)OCCO2)C1Sc2ccccc2NC1=O (stereo not given)	-10%	-1%	9%	-0.9	-2	1.5%	10

Entries from the list above that have a cyano group (two):
SMILES	gsp ag	gsp antag	Sfp inh	Menin-MLL FL inh	TRPML1 blocker	ClpP mod	TRPV1 potentiator
CCN(CC)P(=O)(Nc1ccc(Br)cc1)c1c(C)nn(CCC#N)c1NC(=O)c1ccc(Cl)cc1 (stereo not given)	45%	u	18%	-8.9	38	x	u
N#CCCn1cc(C(=O)NCc2ccccc2)c(-c2ccccc2)n1	7%[15.4 µM]	4%	7%	1.1	-21	x	13

Other results follow:
SMILES	gsp ag	gsp antag	Sfp inh	Menin-MLL FL inh	TRPML1 blocker	ClpP mod	TRPV1 potentiator
Cc1cccc(NC(=O)N2CC3CC(C2)c2cccc(=O)n2C3)c1 (stereo not given)	u	-3%	-1%	x	-11	-0.8%	2
Oc1c(Br)cc(-c2ccccc2)cc1Br	3%	10%	x	x	-10	x	x
CCS(=O)(=O)N1Cc2ccccc2CC1C(=O)NCC12CC3CC(CC(C3)C1)C2 (stereo not given)	-38%[inhibitor]	-2%	5%	0.3	13	2.8%	8
C1CCC2S[C@H]3CCCCC3NC2C1 (stereo not given in full)	-15%[15.4 µM]	5%	7%	-1.7	19	x	7
OCCCCO	x	0%	x	x	-4	-0.4%	1
Cc1cccc(CN2CCCN(Cc3ccc(Cl)cc3)S2(=O)=O)c1	u	-5%	-13%	-3.0	11	0.2%	-10
Cc1cc(=O)oc2cc(OCC(=O)N3CCC(C(=O)O)(c4ccccc4)CC3)ccc12	x	-10%	20%	-4.3	x	4.8%	5
CN1c2ccc([N+](=O)[O-])cc2CC2(C(=O)NC(=O)N(c3ccccc3)C2=O)C1c1ccccc1 (stereo not given)	-7%	4%	30%	1.2	-13	-14%	-8
O=c1c2cc(Br)ccc2[nH]c(=S)n1-c1ccccc1	-1%[15.4 µM]	-5%	-16%	-0.9	21	-0.2%	-1
O=C1NC(=O)C(=Cc2cc(Cl)ccc2OCc2ccc(C(=O)O)cc2)C(=O)N1	-1%	14%	50µM*	0.6	13	u	-1
CC1C2Cc3ccc(O)cc3[C@]1(C)CCN2CCc1ccccc1 (stereo not given in full)	x	7%	x	x	2	-1.4%	x
CCOc1cc2c(cc1OCC)-n1cccc1C(c1ccc(F)c(OC)c1)NC2 (stereo not given)	u	1%	-11%	-0.2	x	-3.0%	-8
O[C@@H]1CCCN2CCc3c([nH]c4ccccc34)[C@H]12	-10%	4%	x	x	38	u	x
COc1cccc(C2=NOC(C(=O)N3CCC4(CC3)OCCO4)C2)c1 (stereo not given)	29%	7%	2%	0.1	-7	-6.3%	0
Cc1nn(Cc2ccccc2)c(C)c1C(=O)OCC(=O)Nc1ccccc1SCC#N	-12%	0%	-10%	u	4	-0.8%	-22
COc1ccc(/C=C2\C(=N\O)C3CCN2CC3)cc1	15%	-9%	4%	-0.6	-1	-1.8%	0
OC1(c2ccc(F)cc2)CCNC1 (stereo not given)	-25%	17%	6%	1.2	10	2.4%	8
O=C1C2CCN(CC2)C12CC2c1ccc(C(F)(F)F)cc1 (stereo not given)	-6%[15.4 µM]	10%	7%	6.4	3	x	-7
Cn1c(=O)oc2cc(S(=O)(=O)N3CCc4ccccc43)ccc21	-54%[inhibitor]	-11%	14%	3.5	x	0.6%	-9
COCCCNC(=O)c1c(N)n(Cc2ccco2)c2nc3ccccc3nc12	-25%	16%	13µM*	u	-1	4.3%	-21
CCC1(C)CC(CCNCc2ccc(N(C)C)cc2)(c2ccc(F)cc2)CCO1 (stereo not given)	-87%[inhibitor]	8%	-1%	2.3	64	-4.8%	-2
COC(=O)C1=C(c2ccccc2OCc2ccccc2)C[C@@H]2CC[C@H]1N2C(=O)NCCN1CCOCC1	-26%	5%	x	x	-1	0.4%	-11
O=C(NC(Cc1cnc[nH]1)C(=O)O)c1ccccc1 (stereo not given)	u	9%	-11%	-5.0	31	-0.7%	1
O=C(c1cc(F)ccc1F)C1CCCN(Cc2ccc3nonc3c2)C1 (stereo not given)	6%[15.4 µM]	-12%	4%	-0.7	4	x	-6
COc1ccc(O)c(CN2CCCC(C(=O)c3sccc3C)C2)c1 (stereo not given)	-2%[15.4 µM]	x	4%	-1.2	6	x	10
CCCCCCn1c(O)c(C=NCCN2CCOCC2)c(=O)[nH]c1=O	7%	-9%	18%	11	7	1.0%	-5
COc1ccc(/C=C2/C(=O)NC(=O)N(c3ccc(C)c(C)c3)C2=O)cc1CN1C(=O)c2ccccc2C1=O	23%[15.4 µM]	26%	40µM*	17	-9	0.0%	-3
COc1ccc(/C=C2/C(=O)NC(=O)N(c3ccccc3)C2=O)cc1CN1C(=O)c2ccccc2C1=O	u	-1%	50µM*	17	-16	0.6%	4
c1ccc(-c2ccc(-c3[nH]ncc3CN3CCC(N4CCSCC4)CC3)cc2)cc1	15%	9%	0%	-1.2	-11	-1.0%	8
O=c1[nH]c(=S)n(C2CC2)c(O)c1C=NCc1ccc(F)cc1	25%	5%	6%	7.0	15	-6.0%	-15
CC(Cc1ccccc1)NCCC(=O)NC(C)Cc1ccccc1 (stereo not given)	-73%[inhibitor]	10%	13%	-9.9	20	-0.2%	-11
NC(=O)c1cn(C2CCCCC2)c2ccccc2c1=O	-13%	-4%	-1%	-3.1	-15	-3.4%	-9

Not all compounds are listed (hit frequency here may not be typical).
